# VACV mCherry inh: qHTS for Stage-Specific Inhibitors of Vaccinia Orthopoxvirus: mCherry Reporter Primary qHTS; Potency, µM (series often up to 36.5 µM), without a hit: top-dose activity change, negative = inhibition, usual class: inhibitors; AID 720579, 2013; 0.63% of 310,000 active; Vaccinia virus mCherry reporter infection, fluorescence; about a quarter of the inactives have no number; active = well fitted inhibition curve with a large enough effect; inconclusive = small, poorly fitted or top-dose-only effect; inactive = no such curve, though single readings can be large or run the other way; tested in A549 cells; note: nearly all actives have a fitted effect of over 35% in size; inactives centre near -10
# Vaccinia Venus: qHTS for Stage-Specific Inhibitors of Vaccinia Orthopoxvirus: Venus Reporter Primary qHTS; Potency, µM (doses to about 36.5 µM), for the others: at the highest dose activity change, negative = inhibition, actives largely listed as inhibitors; Vaccinia virus Venus reporter expression, fluorescence; 0.46% of 330,000 active; AID 720580, 2013; active means well fitted inhibition curve with a large enough effect; inconclusive means small, poorly fitted or top-dose-only effect; inactive means no such curve, though single readings can be large or run the other way; tested in A549 cells; note: nearly all actives have a fitted effect of over 30% in size; inactives centre near -10
# Starred values were filed as active, the others as inactive; i = inactive; ? = inconclusive; . = no result given; & = joins results of further samples; [ ] = another dose, or the depositor's remark. % is set by controls: 0 for no effect and ±100 for the full control effect; potency is the fitted concentration of half-maximal effect.
SMILES,VACV mCherry inh,Vaccinia Venus
COC(=O)c1c(-c2cccs2)csc1NC(=O)c1ccc(C(C)C)cc1,-1%[7.34 µM],-6%[7.34 µM]
Cc1noc(C)c1NC(=O)Nc1cccc2c1O[C@H](CN(C)C(=O)Nc1ccccc1)[C@@H](C)CN([C@H](C)CO)C2=O,i,-12%
CCOC(=O)Cc1[nH]nc2c1C(c1ccoc1)C(C#N)=C(N)O2 (stereo not given),-29%,-21%
CCOC(=O)C1CCN(S(=O)(=O)c2cc(Cl)c(C)cc2OC)CC1,.,-16%
COc1ccccc1C(=O)NC1CC(C)(C)NC(C)(C)C1,-13%,-8%
O=C(Nc1nccs1)C1CC(=O)N(CCc2ccc(F)cc2)C1 (stereo not given),-12%,-14%
CCCCC(=O)N(C)c1c(C)nc2ccc(C(=O)N(C)Cc3ccco3)cn12,21%,8%
COc1ccc(N2CCN(C(=O)c3cn(C)c4ccc(S(=O)(=O)N(C)C5CCCCC5)cc4c3=O)CC2)cc1,-9%,5%
Cc1cc(C)cc(Oc2ccc(N)cc2)c1,-9%,-21%
COc1ccc(-c2cc(C(=O)Oc3ccc(Cl)cc3)c3ccccc3n2)cc1,-12%,-6%
COC(=O)CNC(=O)C1(C)C=CCN1C(=O)c1ccccc1 (stereo not given),i,-10%
N#CC(c1ccc(O)cc1)N1CCN(C(C#N)c2ccc(O)cc2)CC1 (stereo not given),-22%,-11%
O=C(COC(=O)/C=C/c1ccc(S(=O)(=O)N2CCOCC2)cc1)NCc1ccc2c(c1)OCO2,-10%,1%
CCN1CCN(Cc2ccc(NC(=O)c3cc(NC(=O)c4cc(C)on4)cc(OC)c3)cc2C(F)(F)F)CC1,-15%,?
Cc1ccc2c(c1)C(c1ccc(F)cc1)N(C(=O)c1ccccc1Br)CC(=O)N2 (stereo not given),-16%,-18%
CCOC(=O)N1CCN(C(=O)CNC(=O)c2nn(-c3ccc(OC)cc3)c(=O)c3ccccc23)CC1,-9%,-9%
Brc1cccc(-c2nc3ccc(Br)cn3c2Cc2ccccc2)c1,i,1%
COc1ccc(CCNC(=O)c2ccc3c(c2)c(C)c(C)n3Cc2ccc(F)cc2)c(OC)c1OC,-15%,-18%
Cc1ccc(-n2c3nc(=O)n(C)c(=O)c-3cc3ccccc32)cc1,-27%,-10%
Cc1cc(O)c(C(c2cccc(F)c2)N2CCN(c3ccccc3)CC2)c(=O)n1Cc1ccco1 (stereo not given),-8%,-9%
Cc1cc(C)c(C#N)c(SCC(=O)Nc2cc(C)on2)n1,-21%,-20%
CSc1nnc(NC(=O)c2ccc3c(c2)OCO3)s1,-13%,-6%
COc1cc2[nH]c(=S)n(C3CC3)c(=O)c2cc1OC,-16%,-15%
O=C(Nc1ccc(C(=O)N2CCN(c3cccc(Cl)c3)CC2)cc1)c1nsc2ccccc12,-13%,-9%
COc1ccc(OC)c(/C=C/c2cc3ccccc3c[n+]2C)c1,-15%,?
# Next section:
SMILES,VACV mCherry inh,Vaccinia Venus
Cc1cccc(CSc2nc3cccnc3n2Cc2ccc(C(=O)NCc3cccs3)cc2)c1,-16%,?
C=C(NC(=O)C(=C)NC(=O)c1csc(C2=NC3c4csc(n4)C4NC(=O)c5csc(n5)C(C(C)(O)C(C)O)NC(=O)C5CSC(=N5)C(=CC)NC(=O)C(C(C)O)NC(=O)c5csc(n5)C3(CC2)NC(=O)C(C)NC(=O)C(=C)NC(=O)C(C)NC(=O)C(C(C)CC)NC2C=Cc3c(C(C)O)cc(nc3C2O)C(=O)OC4C)n1)C(N)=O (stereo not given),-13%,-10%
O=C(NCc1ccc2c(c1)OCO2)c1cccnc1,-11%,-2%
CCOc1ccc(NC(=O)C(=O)NCCc2csc(-c3ccc(F)cc3)n2)cc1,-10%,-6%
CN(CCOc1ccccc1)CC(=O)Nc1cccc(Br)c1,-1%,-5%
CCOC(=O)CSc1nc(=O)n2cc(C)ccc2n1,-2%,1%
COc1ccc(N2CCN(C(=O)c3ccccc3)CC2)c([N+](=O)[O-])c1,-30%,-7%
CCOc1ccc(C2C(C(C)=O)=C(O)C(=O)N2CCc2c[nH]c3ccccc23)cc1 (stereo not given),-3%,-8%
Cc1onc(-c2ccccc2)c1C(=O)NNC(=S)NC(=O)c1ccc(F)cc1,-4%,-12%
N#CCNC1CC(=O)N(c2ccc(F)cc2)C1=O (stereo not given),-6%,1%
COc1cc(CNC(=O)c2cc(-c3cc(F)ccc3OCC3CCCO3)n[nH]2)cc(OC)c1 (stereo not given),?,?
CC(=O)N1c2ccc(S(=O)(=O)N3CCC(C(=O)Nc4cccc(F)c4)CC3)cc2CC1C (stereo not given),-14%,-17%
Clc1cccc(OCCCN2CCCC2)c1Cl,-23%,-17%
O=C(NC1CCCC1)C1CCN(S(=O)(=O)c2cccc3cccnc23)CC1,-7%,1%
COc1ccc(-c2noc(CCC(=O)NCCN(C)Cc3ccccc3)n2)cc1,.,4%
COc1cccc(C(=O)CN2CCN(S(=O)(=O)c3ccc(Br)cc3)CC2)c1,.,1%
CCOc1ccc(NC(=O)C/C(C)=N/NC(=O)Cc2cccs2)cc1,-21%,8%
CCN(CC)CCCN1C(=O)C2C(C(=O)Nc3ccc(C(C)C)cc3)C3C=CC2(O3)C1C(=O)NC1CCCCC1 (stereo not given),i,-19%
CC12CCC(C(=O)NCc3ccccc3Cl)(CC1=O)C2(C)C (stereo not given),-5%,1%
CCOC(=O)N1CCN(c2nc3ccccc3nc2C(C#N)S(=O)(=O)c2ccc(C)cc2)CC1 (stereo not given),i,0%
CN(CC(=O)Nc1ccc(Cl)c(C(F)(F)F)c1)C(=O)Cc1ccsc1,-17%,?
COc1ccccc1NC(=O)N(Cc1cccs1)Cc1cc2cc3c(cc2[nH]c1=O)OCO3,-7%,?
Cc1ccc(NC(=O)c2csnn2)c(C)c1,-13%,-10%
CCCCNC(=O)NNC(=O)c1ccco1,-12%,0%
N/C(Cc1nc(-c2ccc(Cl)cc2)cs1)=N/O,-15%,-26%
# (further entries)
SMILES,VACV mCherry inh,Vaccinia Venus
CCN(CC)CCC(c1ccc2c(c1)OCO2)c1c(OC)cc(OC)c2ccc(=O)oc12 (stereo not given),-11%,-12%
Cc1cs/c(=N\N=C2CCCCC2)n1Cc1ccco1,?,5%
CCOc1ccc(-n2c(SCC(=O)Nc3ccc4c(c3)OCCO4)nc3c([nH]c4ccccc43)c2=O)cc1,i,-11%
CCOC(=O)N/N=C(\C)c1ccc(-n2cnnn2)cc1,7%,2%
COC(=O)CNC(=O)C(C)NC(=O)OCc1ccccc1 (stereo not given),i,?
CCc1ccc(S(=O)(=O)NCCc2cn3ccsc3n2)s1,6%,-6%
CC(=O)Nc1cccc(-c2nc(-c3ccccc3)no2)c1,-6%,-5%
COc1ccc(NC(=O)c2oc3ccccc3c2NC(=O)Cc2coc3c(C)c(C)ccc23)cc1,-20%,-7%
CC1=NN(c2ccc(Cl)c(C(=O)O)c2)C(=O)/C1=C/c1ccc(-c2ccccc2[N+](=O)[O-])o1,-4%,-2%
O=C(NCc1nnc(SCC(=O)N2CCN(c3ccccc3)CC2)o1)c1ccc(F)cc1,-23%,-20%
COc1cccc(/C=C2\SC(=S)N(CC3CCCO3)C2=O)c1 (stereo not given),i,-12%
CC1CCCC(NC(=O)CSc2n[nH]c(N)n2)C1C (stereo not given),-13%,-5%
COC(=O)CN(c1ccccc1)S(=O)(=O)c1cc(Br)ccc1OC,i,-3%
CN(C)CCNC(=O)COc1ccc(Cl)cc1Cl,i,-16%
COc1cccc(N2CCN(CC(=O)Nc3nc4c(s3)CC(C)CC4)CC2)c1 (stereo not given),i,-18%
CC(=O)Nc1nc(-c2ccccc2)c(-c2ccccc2)o1,-10%,-24%
CC1=NN(c2nc3ccccc3[nH]2)C(=O)C1Cc1ccccc1 (stereo not given),-27%,-18%
Cc1ccnc(SCc2cc(=O)c(OC(=O)c3ccc(Br)o3)co2)n1,-20%,-24%
CC(=O)c1ccc(NC(=O)CCCN2C(=O)COc3ccc(C)cc32)cc1,-21%,-8%
CSC(=CC(=O)c1ccc(F)cc1)SC,i[7.34 µM],-8%[7.34 µM]
COc1cc(C)c(C2NC(=O)c3ccccc3N2)cc1C (stereo not given),?,-29%
Cc1ccc(C(=O)N2N=C(c3ccccc3)CC2(O)C(F)(F)F)o1 (stereo not given),i,-20%
CCOC(=O)c1ccc2c(c1)n(CC)c(C)[n+]2CC,-9%,-15%
O=C(CCc1ccccc1)NCCS(=O)(=O)N1CCN(c2ccccc2)CC1,-6%,7%
COc1cc(C2NC(=S)NC3=C2C(=O)CCC3)ccc1O (stereo not given),-6%,-1%
# Next part:
SMILES,VACV mCherry inh,Vaccinia Venus
CCOc1nc(C)ccc1-c1noc(-c2ccccn2)n1,.,-19%
CCCCNC(=S)N/N=C/c1ccc(C)s1,-17%,-4%
COc1ccccc1-c1nc(SCC(=O)N(C)c2ccccc2)c2c(=O)n(C)c(=O)n(C)c2n1,13%,6%
CCOC(=O)c1sc2ncn(C(CC)C(=O)OCC)c(=O)c2c1C (stereo not given),.,-26%
Cc1occc1C(=O)Nc1cccc(-c2nc(CNC(=O)c3ccc4ccccc4n3)c(C)o2)c1,-3%,-21%
Fc1ccc(NC(=S)Nc2ccccc2N2CCOCC2)cc1Cl,-5%,1%
COCCNC(=O)C1CCCN(C(=O)/C=C/c2ccccc2)CC1 (stereo not given),i,-11%
O=C(C1CCN(S(=O)(=O)N2CCC3(CC2)OCCO3)CC1)N1CCCCC1,-12%,-13%
CCn1cc(C2Nc3ccccc3C(=O)N2O)c(C)n1 (stereo not given),.,0%
CC1Cc2ccccc2N1C(=O)Cn1cc(C(F)(F)F)ccc1=O (stereo not given),i,-2%
O=c1c2ccccc2nc(SCc2nc(-c3ccccc3)no2)n1-c1ccc(F)cc1,19%,-5%
CCN1C(=O)c2cccc3c(S(=O)(=O)Nc4ccc(OC)cc4OC)ccc1c23,i,-13%
COc1ccc(CNC(=O)C(=O)NCC2OCCCN2S(=O)(=O)c2cccs2)cc1 (stereo not given),-13%,-7%
Cc1nc([N+](=O)[O-])cn1-c1nc2ccccn2c1[N+](=O)[O-],?,-15%
CCN(CC)CCN(Cc1cc2ccc(C)c(C)c2[nH]c1=O)C(=S)NCc1ccco1,-13%,4%
N#Cc1ccsc1NC(=O)CN1CCCCC1,-11%,-15%
COc1ccc(CNC(=O)CCC(=O)Nc2nnc(C(F)(F)F)s2)cc1,-14%,-15%
Cc1noc(C)c1CCC(=O)Nc1cc(C(=O)O)ccc1Cl,-20%,-4%
COc1cc(-c2noc(C)c2C#Cc2ccsc2)cc(OC)c1OC,-17%&-19%,?
O=C(COc1ccc(Cl)cc1Cl)Nc1ccc(C(=O)OC2CCCCC2)cc1,-11%,-10%
COc1ccc(CCNCC(=O)Nc2ccc(C)c(S(=O)(=O)N(C)C)c2)cc1,-13%,-25%
N[C@@H](Cc1cc(I)c(Oc2cc(I)c(O)c(I)c2)c(I)c1)C(=O)O,-2%,-4%
C[C@@H]1CCCCO[C@H](CN(C)Cc2ccc(C(=O)O)cc2)[C@@H](C)CN([C@H](C)CO)C(=O)c2cc(N(C)C)ccc2O1,i,-1%
C/C(=N\Nc1ccc(C(=O)c2c(C)cc3ccccn23)cc1[N+](=O)[O-])c1ccc(O)cc1,i[7.34 µM],-1%[7.34 µM]
O=C(NCCCN1CCCC1=O)Nc1ccccc1Cl,i,-3%
Cc1cccc(C)c1Cn1c(C)c(C(=O)NCc2ccc([N+](=O)[O-])cc2)sc1=O,?,?
COCCNC(=O)C(=O)NCC(c1cccnc1)N1CCN(c2ccccc2)CC1 (stereo not given),-6%,-7%

# 14 structures from above, sorted by molecular weight, largest number first.
SMILES,VACV mCherry inh,Vaccinia Venus
N[C@@H](Cc1cc(I)c(Oc2cc(I)c(O)c(I)c2)c(I)c1)C(=O)O,-2%,-4%
COc1ccccc1-c1nc(SCC(=O)N(C)c2ccccc2)c2c(=O)n(C)c(=O)n(C)c2n1,13%,6%
Cc1occc1C(=O)Nc1cccc(-c2nc(CNC(=O)c3ccc4ccccc4n3)c(C)o2)c1,-3%,-21%
COc1ccc(CNC(=O)C(=O)NCC2OCCCN2S(=O)(=O)c2cccs2)cc1 (stereo not given),-13%,-7%
CCN(CC)CCN(Cc1cc2ccc(C)c(C)c2[nH]c1=O)C(=S)NCc1ccco1,-13%,4%
CCN1C(=O)c2cccc3c(S(=O)(=O)Nc4ccc(OC)cc4OC)ccc1c23,i,-13%
O=C(C1CCN(S(=O)(=O)N2CCC3(CC2)OCCO3)CC1)N1CCCCC1,-12%,-13%
Fc1ccc(NC(=S)Nc2ccccc2N2CCOCC2)cc1Cl,-5%,1%
COc1cc(-c2noc(C)c2C#Cc2ccsc2)cc(OC)c1OC,-17%&-19%,?
COCCNC(=O)C1CCCN(C(=O)/C=C/c2ccccc2)CC1 (stereo not given),i,-11%
Cc1noc(C)c1CCC(=O)Nc1cc(C(=O)O)ccc1Cl,-20%,-4%
O=C(NCCCN1CCCC1=O)Nc1ccccc1Cl,i,-3%
CCn1cc(C2Nc3ccccc3C(=O)N2O)c(C)n1 (stereo not given),.,0%
N#Cc1ccsc1NC(=O)CN1CCCCC1,-11%,-15%

# Assay outcomes as filed in PubChem BioAssay.
